High-throughput results deposited in PubChem by several laboratories.
Bfl-1 A1 inh = inhibitors of the anti-apoptotic protein A1, read as caspase activation; caspase activation, % (concentration not given with the values); AID 2462; MEF A1-2A-BIM cells, Caspase-Glo 3/7 luminescence, 3 h; percent of clofoctol response, vehicle zero; 330,000 compounds, 0.066% hits;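 active = over half of replicate activation scores above 10%, or exactly half above 10 with the replicate mean above 10; inconclusive = replicate mean below 10 yet half the replicates above 10; inactive = over half of replicates below 10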;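 also: wells of about 30 µL received 50 nL stock; many hits fall short of the cut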
HNF4A DNA FP = change in binding of human HNF4 alpha to DNA. P41235. HNF4a-FITC DNA binding, fluorescence polarization, 1 h. activity change, % at 10 µM. 360,000 compounds, 0.3% hits. AID 1224865; in the data active = activity change above about 30%, passing the limit was not always enough;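 also: controls were the assay level and a saturating level of protein; the project sought stronger binding though the title names inhibitors; some compounds called inactive have numbers as strong as hits; positive values seem to mean higher polarization but the record does not say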
Target sequence (P41235 whole entry, looked up): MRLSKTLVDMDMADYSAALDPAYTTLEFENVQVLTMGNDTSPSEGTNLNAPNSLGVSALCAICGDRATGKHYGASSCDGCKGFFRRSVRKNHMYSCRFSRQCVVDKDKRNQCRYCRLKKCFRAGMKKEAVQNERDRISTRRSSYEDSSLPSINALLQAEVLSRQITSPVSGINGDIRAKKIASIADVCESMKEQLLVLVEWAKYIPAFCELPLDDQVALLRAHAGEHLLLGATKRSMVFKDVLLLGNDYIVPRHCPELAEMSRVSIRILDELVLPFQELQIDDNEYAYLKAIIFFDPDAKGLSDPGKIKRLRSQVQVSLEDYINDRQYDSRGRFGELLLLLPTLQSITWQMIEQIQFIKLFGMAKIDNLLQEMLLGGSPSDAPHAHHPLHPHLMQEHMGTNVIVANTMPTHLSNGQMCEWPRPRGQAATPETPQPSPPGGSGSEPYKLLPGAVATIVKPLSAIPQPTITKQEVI
Vif TR-FRET = HIV-1 Vif–A3G interaction blockers – biochemical, TR-FRET, GST-Vif 1-94, biotin-A3G peptide, dose response retest, primary screen (AID 1117319); TR-FRET GST-Vif / biotin-A3G peptide binding; higher % means a stronger effect; test concentration not given here; strong numbers were not always called active; inhibition, %; hits with a dose series show IC50 in µM; 260,000 compounds, 0.57% hits;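 active = above the screen mean plus three standard deviations and confirmed in dose response; inconclusive = results disagree or hit not tested in dose response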;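 also: Vif residues 1-94 fused to GST binding biotinylated APOBEC3G peptide 110-148; 0% = full assay without inhibitor and 100% = GST in place of GST-Vif; retest series ran down from 100 µM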
UCH37 DUB inh = inhibitors of human deubiquitinating enzyme UCH37 | Q9Y5K5 | purified proteasome/UCH37, Ub-AMC cleavage fluorescence | inhibition, % (concentration not given with the values) | 330,000 compounds, 0.33% hits | AID 588478;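 active = mean of two replicates above 20%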;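 also: 0% = compound-free wells with enzyme and 100% = wells lacking proteasome; stock transfer was 100 nL into about 20 µL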
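Assay system: Proteasome-bound UCH37. Buffer or medium: pH 7.4 Tris-HCl (50 mM) with ovalbumin, ATP-MgCl2, DTT. Incubation: 30 min preincubation with enzyme, 25 min cleavage at room temperature. Measured by: fluorescence, ex 355 nm, em 460 nm. Read-out basis: percent inhibition. Control set: wells without proteasome as full block, compound-free enzyme plus substrate as uninhibited.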
Ecoli growth = blocks Escherichia coli growth | OD600, 23 h; active compounds read low | OD600 absorbance (concentration not given with the values) | 330,000 compounds, 0.21% hits | AID 1053175;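 active = OD600 absorbance below the run mean of sample wells minus 3.6 SD, in any replicate, cut at about 0.56 in these data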;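 also: stock transfer was 300 nL into about 60 µL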
LANA-H2B inh = blocks KSHV LANA binding to histone H2A/H2B; Q9QR71; cell-free LANA-H2A/H2B peptide, fluorescence polarization; 320,000 compounds, 0.6% hits; inhibition, % (test concentration not listed); AID 2629; in the data active = inhibition mostly above about 10%, no sharp cut-off; inactive = mostly below about 6.7%;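 also: stock transfer was 7.5 nL into about 10 µL; 0% = median of vehicle wells and 100% = median of positive control wells; one replicate is shown; the record names a cut of 25% in any replicate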
B2AR ag = activates human beta-2 adrenergic receptor causing internalization; response, % (no concentration beside the values); 340,000 compounds, 0.43% hits; Am2.2-beta2AR cells, FAP receptor internalization, flow cytometry; reference of the scale not given here; P07550;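 active = response above a set limit, near 3 SD of response in nonfluorescent compounds, cut at about 42% in these data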;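 also: stock transfer was 100 nL into about 11 µL; a reference agonist was the positive control; negative values mostly stem from fluorescent compounds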
Target sequence (P07550 whole entry, looked up): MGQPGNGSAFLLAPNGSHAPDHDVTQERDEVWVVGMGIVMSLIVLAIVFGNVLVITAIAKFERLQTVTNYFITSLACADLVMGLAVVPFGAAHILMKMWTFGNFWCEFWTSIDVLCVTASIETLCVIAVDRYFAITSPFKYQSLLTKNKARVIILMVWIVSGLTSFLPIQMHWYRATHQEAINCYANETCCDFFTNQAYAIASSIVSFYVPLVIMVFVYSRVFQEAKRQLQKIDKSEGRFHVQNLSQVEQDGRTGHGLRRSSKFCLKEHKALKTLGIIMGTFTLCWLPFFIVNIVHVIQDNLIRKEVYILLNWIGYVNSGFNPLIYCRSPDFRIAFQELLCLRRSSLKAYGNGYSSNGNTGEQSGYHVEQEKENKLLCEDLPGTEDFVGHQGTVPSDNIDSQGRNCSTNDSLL
Active calls of the source: *; u = inconclusive; x = not tested or not shown; & = joins results of further samples. Compounds were not picked by outcome, and some 2.1% of all compounds hit somewhere here.

SMILES | Bfl-1 A1 inh | HNF4A DNA FP | Vif TR-FRET | UCH37 DUB inh | Ecoli growth | LANA-H2B inh | B2AR ag
CN(Cc1ccncc1)C1CC(=O)N(c2ccc(F)cc2)C1=O (stereo not drawn) | -0.4 | -0.6 | 8% | 0.3 | 0.7 | -0.6 | 2
COC(=O)/C(=N/Nc1ccccc1)N1CCCc2ccccc21 | -0.6 | 0.6 | x | x | x | x | 0
O=C(Nc1nnc(C2CC2)s1)C1CCCCC1 | 0.5 | 4.8 | 14% | 0.4 | 0.68 | -0.6 | -10
O=S(=O)(c1cccc2nsnc12)N1CCN(C/C=C/c2ccccc2)CC1 | 0.6 | 0.4 | u | -1.2 | 0.66 | 0.6 | -4
Cc1ccc(S(=O)(=O)OCC(=O)Nc2ccc(C(=O)O)c(O)c2)cc1 | x | -54 | 64µM* | x | x | x | -9
O=C(NC(=S)NNC(=O)[C@H]1C[C@@H]1c1ccccc1)c1ccc(F)cc1 | -0.5 | -1.7 | x | 1.0 | 0.66 | -1.2 | 11
O=C(NC(C(=O)N/N=C/c1cccc2ccccc12)c1n[nH]c(=O)c2ccccc12)c1ccccc1 (stereo not drawn) | -0.1 | -2.9 | 4% | x | x | 2.3 | -2
CSc1cccc(-n2ccc(=O)c(C)c2C)c1 | -0.5 | -3.5 | -8% | 1.8 | 0.67 | 0.0 | -6
Fc1ccc(-n2c(-c3ccc4c(c3)OCO4)n[nH]c2=S)cc1Cl | 0.0 | 1.6 | 14% | 5.5 | 0.71 | -6.7 | -14
CC(Sc1nc2ccccc2s1)C(=O)N1CCOCC1 (stereo not drawn) | 1.1 | -2.1 | u | 5.8 | 0.73 | -5.5 | 2
Cc1nn(C)c(C)c1CCC(=O)O | 1.1 | 2.3 | x | 2.8 | 0.67 | -1.8 | -3
Cc1ccc(OCC(=O)Nc2ccc(N(C)C)cc2)cc1 | 0.4 | 1.6 | u | 3.2 | 0.67 | -3.5 | 3
COc1cccc(NC(=O)NC2CCN(Cc3nnnn3Cc3ccc4c(c3)OCO4)CC2)c1 | 1.2 | 0.5 | x | 4.4 | 0.69 | -1.1 | 6
O=C(CC1SC(N2CCCC2)=NC1=O)Nc1ccc(C(=O)Nc2ncccc2O)cc1 (stereo not drawn) | -0.6 | 0.4 | x | 5.2 | 0.69 | 2.8 | 4
CN(C)c1ccc(-c2nc3ccccn3c2/N=C/c2ccc(Br)cc2)cc1 | -8.8 | 3.2 | 6% | x | x | -1.2 | 4
O=C1c2cccc3c(N4CCCCC4)ccc(c23)C(=O)N1c1ccccn1 | 0.0 | -2.2 | 0% | -2.1 | 0.77 | 32* | 0
CN(CC(=O)Nc1ccc(Cl)c(C(F)(F)F)c1)C(=O)CCCc1nc2ccccc2c(=O)[nH]1 | 1.6 | -0.7 | -4% | 2.1 | 0.65 | -4.7 | -1
CCOC(=O)C(C)Sc1ncnc2c1c(-c1ccccc1)cn2-c1ccc(OC)cc1 (stereo not drawn) | 0.8 | -0.7 | x | 5.1 | 0.72 | -1.3 | 6
COC(=O)[C@H]1[C@H]2C[C@@H]3c4[nH]c5cc(OC)ccc5c4CCN3C[C@H]2C[C@@H](OC(=O)c2cc(OC)c(OC)c(OC)c2)[C@@H]1OC | 0.5 | 11 | x | -3.2 | x | 0.5 | -36
CCCNC(=O)c1ccc(COc2cccc3ccccc23)o1 | 0.0 | 3.0 | -2% | 1.5 | 0.67 | 0.1 | 25
Cc1ccc(S(=O)(=O)N2CCOCC2)cc1C(=O)Nc1ccc2c(c1)CCC2 | -0.6 | 2.1 | x | 1.9 | 0.69 | -8.0 | 8
CCc1ccc2c(c1)/C(=N/OC)C(=O)N2 | 1.3 | 0.0 | 14% | x | x | -1.9 | 2
O=C(CN1CCCc2ccccc21)N/N=C/c1ccccc1 | 0.2 | 2.7 | 16% | x | x | 1.8 | -8
CCN(CC)C(=O)COc1ccc(/C(C)=N/NC(=O)c2ccccc2O)cc1 | 1.6 | -5.6 | -8% | x | x | 6.5 | -3
CCS(=O)(=O)N1CCC(C(=O)Oc2ccc(Br)cc2)CC1 | -0.3 | 0.6 | x | 2.8 | 0.66 | 0.8 | 3
COc1ccccc1N(Cc1ccccc1)S(=O)(=O)c1cccc(C(=O)N2CCCCC2)c1 | -1.3 | -2.1 | x | 2.0 | 0.71 | -0.8 | 19
O=C(O)CCC(=O)/C=C/c1ccccc1 | -0.5 | 0.8 | 3% | 0.6 | 0.68 | 4.1 | 1
CC(=O)N/C(=C/c1ccc2c(c1)OCO2)C(=O)NCCO | 0.3 | -0.9 | 7% | 2.8 | x | -7.2 | 9
COc1cc(-c2cc(C(=O)O)c3c(OC)c(OC)c(OC)cc3n2)ccc1O | 0.6 | -0.3 | 4% | 5.6 | 0.81 | -1.4 | 2
CC(C)Cc1nc2oc3c(N4CCN(CCO)CC4)ncnc3c2c2c1CCCC2 | -1.4 | 10 | 0% | 1.6 | 0.67 | 3.3 | 10
CCN1CCN(c2nc3c(c(=O)[nH]c(=O)n3C)n2Cc2ccccc2)CC1 | -0.7 | 2.3 | x | 2.0 | 0.68 | 3.1 | 7
c1ccc2c(Nc3nncs3)c3ccccc3nc2c1 | 0.7 | -3.1 | -10% | 4.0 | 0.74 | 0.9 | -10
Nn1cnnc1N/N=C/c1ccccc1C(F)(F)F | 1.2 | 2.6 | -2% | x | x | 6.0 | -3
CCOC(=O)c1ccc(NS(=O)(=O)c2c(N)n(C)c(=O)n(C)c2=O)cc1 | 0.1 | 4.2 | x | 2.9 | 0.71 | 2.4 | -1
Cn1cc(SCC(=O)NCCc2ccccc2)c2ccccc21 | 1.3 | -7.9 | 3% | 3.7 | 0.65 | 5.2 | 2
C=CCSc1nnc(-c2ccccc2NC(C)=O)c(=O)[nH]1 | -0.7 | 0.8 | 10% | 4.6 | 0.72 | 1.4 | -6
Cc1nc2c(cc1C#N)C(=O)c1ccccc1-2 | -0.6 | -0.1 | x | 5.5 | 0.66 | 7.3 | 2
Cc1ccccc1-c1ccccc1CN1[C@@H](C(C)C)COCCS1(=O)=O | x | -2.9 | 0% | 4.3 | 0.71 | x | 9
CCOC(=O)c1ccccc1NC(=O)COC(=O)CCNS(=O)(=O)c1ccccc1 | -1.0 | 2.5 | -2% | 2.5 | 0.72 | 3.9 | -2
Cc1ccc(S(=O)(=O)N/N=C/c2cccs2)cc1 | -1.2 | 1.2 | x | x | x | -3.5 | 2
Cc1cc(OCC(=O)NNC(=S)NC(=O)c2cccs2)ccc1Cl | 0.8 | 2.6 | -1% | 1.7 | 0.73 | -2.5 | -4
COc1ccc(S(=O)(=O)N(C)C[C@H]2Oc3ccc(NC(=O)Cn4cnnn4)cc3C(=O)N([C@H](C)CO)C[C@@H]2C)cc1 | -0.6 | 0.3 | 5% | 3.5 | 0.7 | 11 | -4
Cc1ccc(S(=O)(=O)N2CCN(C(=O)c3c(-c4ccccc4)noc3C)CC2)c(C)c1 | 0.1 | 0.5 | x | -1.4 | 0.72 | -3.8 | 1
Cc1ccc(C)c(S(=O)(=O)c2c(N)n(/N=C/c3ccco3)c3nc4ccccc4nc23)c1 | -0.3 | 5.0 | u | x | x | 0.1 | 3
Cc1ccc(/C=N/NC(=O)CNC(=O)COc2ccccc2)cc1 | -0.1 | -0.9 | 2% | x | x | -2.5 | -19
Cc1nc2ccccc2c(=O)n1-c1ccc(F)c(NC(=O)c2cccs2)c1 | 0.9 | -0.4 | 5% | -0.3 | 0.63 | 2.6 | 11
Cc1cc(NC(=O)c2ccc3c(c2)C(=O)N(CC(C)C)C3=O)no1 | 0.5 | -1.0 | -3% | 2.4 | 0.65 | 2.0 | -8
O=C(Nc1nnc(SCc2ccc(F)cc2)s1)C1=COCCO1 | x | 4.8 | x | 0.9 | 0.67 | x | 3
NCCCN1CCOCC1 | 0.0 | -1.6 | 7% | -2.0 | 0.68 | -9.7 | 5
O=C1CCN=C(Nc2ccc(F)cc2)N1Cc1ccccc1 | 0.0 | 3.6 | 4% | 1.0 | 0.67 | 1.7 | 2
O=C(C[C@@H]1C/C=C\C[C@H](Cc2ccc(F)cc2)C(=O)OC[C@H]2CCCN2C1=O)N[C@H](CO)Cc1ccccc1 | 0.0 | 3.8 | x | 1.9 | x | 0.9 | -7
COc1cc2[nH]c3c(Cl)ncnc3c2cc1OC | -1.6 | -1.3 | 0% | 5.0 | 0.68 | -5.9 | -33
COc1cccc(NC(=O)c2ccnc(N3CCC(C(=O)NCc4ccccc4OC)CC3)c2)c1 | 0.9 | 0.0 | x | -182 | 0.7 | 0.1 | 9
COc1ccc(CCN(C)C(=O)c2cccc(S(=O)(=O)N3CCN(c4ccc(F)cc4)CC3)c2)cc1OC | x | -2.8 | x | 2.5 | 0.68 | x | -2
Nc1c(C(=O)c2ccc(F)cc2)oc2ccccc12 | -0.1 | -1.9 | 12% | -6.8 | 0.68 | -1.8 | 2
CC(=O)OC1OCCOC1NC(=S)Nc1ccc(C)cc1 (stereo not drawn) | 1.1 | 0.9 | 78% | 0.5 | 0.63 | -3.0 | -1
C=CCn1c(-c2ccc(F)cc2)n[nH]c1=S | 1.8 | 0.8 | 0% | 3.1 | 0.66 | -1.2 | 1
COc1ccc2c(c1)C(=O)CC(c1ccc3c(c1)OCCO3)O2 (stereo not drawn) | 0.4 | -1.9 | 2% | -7.5 | 0.63 | -2.5 | 5
O=C(CCNC(=O)c1ccccc1)NNC(=O)c1ccc(F)cc1 | -1.2 | -2.7 | x | 1.3 | 0.64 | 0.4 | 9
Cc1cccc2cc(C(c3nnnn3Cc3ccccc3)N3CCN(c4ccccc4)CC3)c(=O)[nH]c12 (stereo not drawn) | 0.6 | -3.2 | 8%&-194% | -1.6 | 0.74 | 4.3 | -2
(next part)
SMILES | Bfl-1 A1 inh | HNF4A DNA FP | Vif TR-FRET | UCH37 DUB inh | Ecoli growth | LANA-H2B inh | B2AR ag
CC(OC(=O)CSc1ccc(F)cc1)C(=O)NC1(C#N)CCCCC1 (stereo not drawn) | -0.2 | 0.5 | x | 2.1 | 0.69 | 2.4 | -1
N#CCc1ccc(Oc2ccc([N+](=O)[O-])cn2)cc1 | 0.6 | 2.0 | x | 5.3 | 0.68 | -5.8 | -1
CNc1ccc(C=C2C=Cc3ccccc32)cc1 | x | 5.5 | -6% | 3.9 | 0.67 | x | 6
COc1ccccc1NC(=O)Nc1nnc(CC(=O)Nc2ccccc2)s1 | -0.2 | x | x | 0.8 | 0.71 | -2.5 | x
Cc1ccc(S(=O)(=O)N2CCN(C(=O)Cn3c(=O)oc4ccccc43)CC2)cc1 | -0.4 | 1.2 | x | 0.5 | 0.71 | -4.6 | -5
N/C(=N\c1nc2ccccc2o1)NC(=O)c1ccccc1 | -2.7 | -3.2 | -2% | x | x | -2.7 | 4
N/C(=N\OC(=O)COc1ccc2ccccc2c1Br)c1cccnc1 | 0.3 | x | -4% | 2.4 | 0.67 | -3.9 | x
O=C(CCn1cccc1)Nc1cc(F)ccc1F | -0.3 | -2.3 | 1% | 3.0 | 0.59 | 3.7 | 3
CCc1cccc(NS(=O)(=O)c2csc(C(N)=O)c2)c1 | 0.7 | 3.1 | 1% | 2.3 | 0.69 | -3.2 | -5
